Screening data as filed in PubChem BioAssay.
PV pol inh – poliovirus RNA polymerase inhibition. actives 0.66% (n = 150,000). % elongation, % (compound at 16.7 µg/mL). poliovirus polymerase elongation, fluorescence polarization; hits give low values. P03300; in the data active = % elongation below about 90%; also: some results filed as inactive read as strong as hits
Target sequence (P03300 1749-2209 limits assumed): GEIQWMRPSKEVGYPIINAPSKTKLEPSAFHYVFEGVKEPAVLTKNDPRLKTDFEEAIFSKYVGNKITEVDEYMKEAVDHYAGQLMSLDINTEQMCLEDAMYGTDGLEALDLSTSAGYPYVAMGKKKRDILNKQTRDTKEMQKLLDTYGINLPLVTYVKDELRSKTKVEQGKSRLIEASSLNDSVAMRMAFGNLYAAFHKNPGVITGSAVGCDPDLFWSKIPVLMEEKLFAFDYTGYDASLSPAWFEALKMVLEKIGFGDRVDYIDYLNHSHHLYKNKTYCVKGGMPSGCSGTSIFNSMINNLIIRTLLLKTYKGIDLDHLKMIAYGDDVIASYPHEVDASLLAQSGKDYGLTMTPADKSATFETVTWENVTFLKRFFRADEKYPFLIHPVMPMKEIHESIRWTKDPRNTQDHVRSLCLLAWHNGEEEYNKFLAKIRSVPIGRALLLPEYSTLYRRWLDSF
Mtb MenB inh – inhibitors of Mycobacterium tuberculosis MenB enzyme | actives 0.43% (n = 100,000) | AID 540299 | inhibition, %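 (about 12 µg/mL by stock and volumes)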 | P9WNP5 | MenB enzyme assay, absorbance read-out; some hits fall short of the stated cut;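 active = mean of two replicates above 30%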;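 also: 0% = no compound and 100% = wells with inactive enzyme; the first replicate is given; strong numbers were not always called active; inactives centre near -10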
Target sequence (P9WNP5 whole entry, looked up): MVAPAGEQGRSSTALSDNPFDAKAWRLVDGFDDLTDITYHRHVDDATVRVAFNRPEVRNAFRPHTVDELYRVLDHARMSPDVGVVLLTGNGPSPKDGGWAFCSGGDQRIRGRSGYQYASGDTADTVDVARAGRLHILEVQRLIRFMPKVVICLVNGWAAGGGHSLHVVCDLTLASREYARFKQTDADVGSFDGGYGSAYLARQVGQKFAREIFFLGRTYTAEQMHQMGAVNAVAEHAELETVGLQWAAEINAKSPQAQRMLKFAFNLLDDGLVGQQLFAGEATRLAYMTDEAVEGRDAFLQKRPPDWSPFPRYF
MbtI inh – MbtI salicylate synthase inhibition. P9WFX0. purified MbtI enzyme, fluorescence intensity read-out. inhibition, %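 (about 17 µg/mL by stock and volumes)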. actives 0.89% (n = 100,000). AID 493033;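 active = above 50% in both replicates, above 80% if mildly self-fluorescent; inactive = the rest, strongly fluorescent compounds included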;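 also: 0% = mean of negative and 100% = mean of positive controls; one replicate is shown; some compounds called inactive have numbers as strong as hits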
PV pol inh intensity – second read-out of PV pol inh, no call of its own (marks repeat the call); % elongation; measured here: total intensity read-out; formula for this scale not given here;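 total fluorescence in place of polarization; lower means less elongation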
Active calls of the source: *; x = not tested or not shown; & = joins results of further samples. No enrichment for hits, and some 1.7% of all compounds hit somewhere here.

SMILES	PV pol inh	PV pol inh intensity	Mtb MenB inh	MbtI inh
O=C(NC1CC1)c1ccc(CS(=O)c2cccc(Cl)c2)o1 (configuration not stated)	102	98	11	50
COc1ccccc1N(CC(N)=O)S(=O)(=O)c1ccccc1	103	102	-9	7
CSc1ncc(Cl)c(C(=O)Oc2ccccc2Cl)n1	104	103	0	-3
O=C1CCCN1C(=O)CSc1nnc2sc3ccccc3n12	99	95	5	5
CCC(C)C(NS(=O)(=O)c1ccc(Cl)c(C(=O)O)c1)C(=O)O (configuration not stated)	98	92	-13	-10
Cc1ccc(C)c(-c2nnc(NC(=O)c3ccccc3S(C)(=O)=O)o2)c1	99	103	-25	14
Cn1c(=Nc2ccccc2C(=O)O)ccc2ccccc21	104	103	-9	1
O=C(NCCN1C(=O)C2C3C=CC(C3)C2C1=O)N1CCCCC1 (configuration not stated)	100	97	-14	8
CCc1ccc(C2=CC(c3ccc(SC)cc3)n3nnnc3N2)cc1 (configuration not stated)	102	107	-1	-17
CCOC(=O)c1oc2c(c1C)C(=O)CC(C)(C)C2	102	98	-18	5
Cc1[nH]n(-c2ccccc2)c(=O)c1/C=N/NC(C)(C)C	104	99	-2	6
O=C(CSc1nnc2ccccn12)Nc1cc(C(=O)O)cc(C(=O)O)c1	96	103	6	-28
C=C(C)[C@@H]1CC[C@]2(CO)CC[C@]3(C)[C@H](CC[C@@H]4[C@@]5(C)CCC(O)C(C)(C)[C@@H]5CC[C@]43C)[C@@H]12 (some centres not stated)	101	99	-7	-16
Cc1csc2c(N3CCOCC3)ncnc12	102	95	-7	8
Cc1cc(C(=O)CN2C(=O)NC3(CCCCC3C)C2=O)c(C)n1Cc1ccco1 (configuration not stated)	105	106	-24	-3
Cc1cc(C(=O)CSc2nccn2Cc2ccccc2)c(C)n1C1CCS(=O)(=O)C1 (configuration not stated)	106	109	-5	11
CCOC(=O)N1CCN(Cc2cc(=O)oc3ccc(OC)cc23)CC1	103	104	16	3
c1ccc(N=c2[n-][n+](-c3ccccc3)cn2-c2ccccc2)cc1	85*	78*	-38	x
COc1ccc(CCNC(=O)C(C)(C)C)cc1OC	105	106	1	x
Cc1ccc(-n2cc(-c3ccccc3)c3c(NCc4ccccc4)ncnc32)cc1	104	105	-13	6
O=C(/C=C/C(=O)N1CCOCC1)NC1CCCc2ccccc21 (configuration not stated)	103	112	9	12
CCOC(=O)C(C)(C)Sc1nnc(COc2ccccc2)n1CC	103	99	-41	2
CCOc1ccc(S(=O)(=O)N2CCCC(C(=O)NC)C2)cc1Cl (configuration not stated)	104	103	-12	-19
[O-][n+]1onc2c1CCc1c-2nn(-c2ccc(Cl)cc2Cl)[n+]1[O-]	101	102	-1	11
CCOC(=O)c1nccn1Cc1ccccc1Cl	103	96	-24	-3
COc1nc(Cl)nc(N2CCCCC2)n1	100	106	-1	x
c1ccc(CSc2ncnc3c2nnn3Cc2ccccc2)cc1	103	108	-2	-4
COc1ccccc1CNC(=O)CCS(=O)(=O)c1ccc2c(c1)n(C)c(=O)c(=O)n2C	104	102	2	-2
O=C(CCCn1c(=O)c2cccn2c2ccccc21)N1CCN(Cc2ccc3c(c2)OCO3)CC1	101	103	-27	-13
CCN(CC)CCc1nc(-c2ccccc2)no1	101	101	-5	0
C/C(=N\NC(N)=O)C1CC(Cc2ccccc2)C(=O)O1 (configuration not stated)	101	103	22	-3
Cc1ccc(C(=O)N2CCc3ccccc3C2)cc1	103	106	4	x
NC(=O)C1CCN(C(=O)c2ccc3c(c2)sc2nc(-c4ccccc4)cn23)CC1	102	104	-13	-84
O=C(O)CN1C(=O)c2cc(Cl)c(Cl)cc2C1=O	100	101	1	-7
CC(=O)Nc1ccc(S(=O)(=O)NC2=NCN(CCOC(=O)c3ccccc3)CN2)cc1	102	97	-27	0
CCOc1cc(/C=C2\SC(N)=NC2=O)ccc1OC(C)=O	103	101	-8	16
COc1ccc(C2CC(O)CC(c3ccc(OC)cc3)C23C(=O)NC(=O)NC3=O)cc1 (configuration not stated)	107	112	-3	x
CC1(C)OC(=O)C(=Cc2ccc[nH]2)C(=O)O1	103	107	-37	-5
N#Cc1ccc(C#CCOC(=O)Nc2ccc(OC(F)(F)F)cc2)cc1	103	108	-13	-8
Cc1ccc(-c2nnn(CC(=O)NN)n2)cc1Cl	103	105	-16	5
O=C(/C=C/c1ccc(OC(F)F)cc1)OCc1ccco1	108	111	-14	-4
CC1=C(C(=O)OCC2CCCO2)C(c2ccccc2)NC(=O)N1 (configuration not stated)	102	102	22	20
CC(C)(C)C(=O)OCOC(=O)[C@@H]1N2C(=O)[C@@H](N=CN3CCCCCC3)[C@H]2SC1(C)C	98	101	-26	-1
FC(F)(F)c1cccc(N=Cc2cccnc2)c1	100	102	7	-5
CCOc1ccc(C(=O)NC(C(=O)Nc2ccc(S(=O)(=O)N(C)C)cc2)C(C)C)cc1 (configuration not stated)	102	101	-29	4

Random excerpt: 2 records from the list, in no set order.
SMILES	PV pol inh	PV pol inh intensity	Mtb MenB inh	MbtI inh
Cc1[nH]n(-c2ccccc2)c(=O)c1/C=N/NC(C)(C)C	104	99	-2	6
COc1ccccc1CNC(=O)CCS(=O)(=O)c1ccc2c(c1)n(C)c(=O)c(=O)n2C	104	102	2	-2

Going on with the list:
SMILES	PV pol inh	PV pol inh intensity	Mtb MenB inh	MbtI inh
COc1cc(CN2CCN(C(=O)COc3ccccc3)CC2)cc(OC)c1OC	101	96	4	0
CC(=O)N1CN(C(C)=O)CN(C(C)=O)C1	100	101	-36	1
Cc1cc(C)c2nc3sc(C(=O)N4CCOCC4)c(N)c3cc2c1	92	172	-86	35
COC(=O)c1sc(SCCOC(=O)c2ccccc2Cl)c2c1CC(C)(C)CC2=O	106	111	-3	-13
CCOC(=O)C1=C(N)OC2=C(C(=O)CC(C)(C)C2)C1c1ccccc1 (configuration not stated)	104	101	-20	-11
CCCC1=C(C(=O)OC)C(c2ccccc2)n2c(nc3ccccc32)N1 (configuration not stated)	99	100	-36	43
Nc1cc(N)nc(SCC(=O)N2CCc3ccccc32)n1	102	102	11	-5
CC1(C)CC(=O)C=C(NNc2ccccn2)C1	101	103	-78	58*
Cc1cc2c(=O)n(C)c(SCC(N)=O)nc2s1	100	103	-14	-7
O=c1[nH]c2ncnn2c(-c2ccc(Cl)cc2)c1-c1ccc(F)cc1	104	106	x	-8
NC(=O)COC(=O)CC12CC3CC(CC(C3)C1)C2	99	106	-25	-15
CC1CCc2nc(NCCO)nc(C(F)(F)F)c2C1 (configuration not stated)	100	103	-20	28
Cc1ccc(NC2=CC(=O)NC2)cc1	104	104	-25	9
Cc1ccc(NC(=O)CN(C)C(=O)CSc2nnc(-c3ccc4c(c3)OCO4)o2)cc1	99	97	-8	13
CCOCCCn1nnc2c(=O)[nH]c(C(=O)NCc3cccc(Cl)c3)nc21	101	104	16	6
CCCCOC(=O)Nc1ccc(I)cc1C	102	105	-34	-7
Oc1ccc(Br)cc1C1Nc2ccccc2S1 (configuration not stated)	101	109	-5	-14
O=C(CN1Cc2ccccc2C1=O)N1CC=C(c2ccccc2)CC1	99	102	-5	-17
CC1(C)COC(c2cccn2Cc2ccc(F)cc2Cl)=N1	102	103	-7	-7
CC1CN(C(=O)Nc2cccc(C(F)(F)F)c2)CC(C)O1 (configuration not stated)	103	97	-4	-7
Cc1nc(C(=O)NCC(=O)c2ccccc2)c(C(F)(F)F)o1	99	103	4	-5
CSCC[C@H](NC(=O)[C@H](Cc1ccccc1)NC[C@@H](NC[C@@H](N)CS)C(C)C)C(=O)O	102&100	103&103	-11	-10
CCOC(=O)N1CCN(C(=O)c2cccc(NC3=NC4CS(=O)(=O)CC4S3)c2)CC1 (configuration not stated)	102	101	19	0
CN1CCN(C(CNC(=O)c2ccc(Cl)cc2)c2ccc3c(c2)OCO3)CC1 (configuration not stated)	104	95	-27	-7
Cc1ccc(NC(=O)c2oc3ccc(S(=O)(=O)N4CCCC4)cc3c2C)cc1C	100	107	-5	12
CCNC(=O)c1sc(C)nc1N	104	110	-13	x
Nc1c(C(=O)CSc2nnc(-c3ccc4c(c3)OCO4)o2)c(=O)[nH]c(=O)n1Cc1ccccc1	101	105	-28	-13
CC(C)c1ccc(CN2CCNCC2)cc1	103	107	4	8
O=C(NCC1(c2ccccc2)CCOCC1)C1COc2ccccc2O1 (configuration not stated)	101	102	12	3
COc1ccc(C2c3c(n(C)c4ccccc34)C(=O)N2CC(=O)NCc2cccs2)cc1 (configuration not stated)	102	104	-32	74
Oc1ccccc1N=CC=Nc1ccccc1O	102	103	4	-2
N#CCSc1nc2ccccc2c(=O)n1CCn1c(SCC#N)nc2ccccc2c1=O	99	98	-20	-13
CCOc1ccc2nc(NC(=O)C(C)C)sc2c1	104&103	99&105	x	-7&1
CCC1=CC(c2c(O)c3ccccc3n(C)c2=O)=NC(C)CN1 (configuration not stated)	113	115	-18	x
Cc1ccc(CNC(=O)COc2ccc3c(c2)C(=O)CC2(CCCCC2)O3)cc1	105	106	-12	-9
Cc1ccc2c(c1)/C(=N/O)CC(O)(C(F)(F)F)O2 (configuration not stated)	100	102	-32	-32
O=S(=O)(c1cccs1)N1CCCN(S(=O)(=O)c2cccs2)CC1	102	101	26*	3
O=C(CN1CCCN(Cc2ccc(F)cc2Cl)C1=O)NCc1cccnc1	101	101	12	-1
COc1ccccc1N1CCN(C(=S)NC(C)(C)C)CC1	102	106	-4	-9
N#Cc1cccc(COC(=O)c2ccccc2-n2cnnn2)c1	104	99	-2	-10
CC(C)OC(=O)CSc1nc2ccccc2s1	96	95	-29	2
CN1C(=O)/C(=C\c2c(O)c3ccccc3n(C)c2=O)C(=O)c2ccccc21	46	252	-98	x
Cc1ccc(-n2c(=O)c3c(c4cc(C)ccc4n3C)n(CC(N)=O)c2=O)cc1	104	106	0	33
N/C(=N\S(=O)(=O)Cc1ccccc1)Nc1nc2ccccc2o1	99	103	-23	5
COc1ccc2cc(C#N)c(N3CCN(Cc4nnnn4CCC(C)C)CC3)nc2c1	101	104	9	21
COC(=O)c1ccc(CO/N=C(\C)c2ccc(Cl)cc2Cl)o1	104	105	2	-11
N#CCCNCc1cccnc1	106	102	1	-2
O=C(COC(=O)Cc1cccc2ccccc12)NCc1ccc(F)cc1	102	94	x	3
CC(=O)N/C(=N/c1nc(C)cc(C)n1)Nc1cc(C)cc(C)c1	103	107	-13	-15
COc1cccc(CNC(=O)c2ccc(CS(=O)Cc3ccc(C)cc3)o2)c1 (configuration not stated)	100	101	4	-13
NC(=O)COc1cccc(/C=C2/CC/C(=C\c3cccc(OCC(N)=O)c3)C2=O)c1	105	106	-55	-7
CCOC(=O)N1CCN(C(=O)/C=C2\Sc3ccccc3NC2=O)CC1	100	101	-1	-1
O=C(Nc1cc(C(=O)N2CCOCC2)cc(C(=O)N2CCOCC2)c1)c1cc(F)c(F)cc1Cl	104	95	-23	x
CC(C)NC(=O)c1cc2cc3ccc(Cl)cc3nc2o1	100	99	-18	6

Grouped by structure: the compounds so far with an aryl thioether with sulfur outside any ring.
SMILES	PV pol inh	PV pol inh intensity	Mtb MenB inh	MbtI inh
CSc1ncc(Cl)c(C(=O)Oc2ccccc2Cl)n1	104	103	0	-3
O=C1CCCN1C(=O)CSc1nnc2sc3ccccc3n12	99	95	5	5
CCc1ccc(C2=CC(c3ccc(SC)cc3)n3nnnc3N2)cc1 (configuration not stated)	102	107	-1	-17
O=C(CSc1nnc2ccccn12)Nc1cc(C(=O)O)cc(C(=O)O)c1	96	103	6	-28
Cc1cc(C(=O)CSc2nccn2Cc2ccccc2)c(C)n1C1CCS(=O)(=O)C1 (configuration not stated)	106	109	-5	11
CCOC(=O)C(C)(C)Sc1nnc(COc2ccccc2)n1CC	103	99	-41	2
c1ccc(CSc2ncnc3c2nnn3Cc2ccccc2)cc1	103	108	-2	-4
COC(=O)c1sc(SCCOC(=O)c2ccccc2Cl)c2c1CC(C)(C)CC2=O	106	111	-3	-13
Nc1cc(N)nc(SCC(=O)N2CCc3ccccc32)n1	102	102	11	-5
Cc1cc2c(=O)n(C)c(SCC(N)=O)nc2s1	100	103	-14	-7
Cc1ccc(NC(=O)CN(C)C(=O)CSc2nnc(-c3ccc4c(c3)OCO4)o2)cc1	99	97	-8	13
Nc1c(C(=O)CSc2nnc(-c3ccc4c(c3)OCO4)o2)c(=O)[nH]c(=O)n1Cc1ccccc1	101	105	-28	-13
N#CCSc1nc2ccccc2c(=O)n1CCn1c(SCC#N)nc2ccccc2c1=O	99	98	-20	-13
CC(C)OC(=O)CSc1nc2ccccc2s1	96	95	-29	2

2 entries from above in another layout.
smiles,PV pol inh,PV pol inh intensity,Mtb MenB inh,MbtI inh
O=C(CSc1nnc2ccccn12)Nc1cc(C(=O)O)cc(C(=O)O)c1,96,103,6,-28
C=C(C)[C@@H]1CC[C@]2(CO)CC[C@]3(C)[C@H](CC[C@@H]4[C@@]5(C)CCC(O)C(C)(C)[C@@H]5CC[C@]43C)[C@@H]12 (some centres not stated),101,99,-7,-16
